High-throughput results (PubChem)
KCNQ2 pot: potentiators of rat KCNQ2 potassium channel | B-score at 10 µM | Potassium voltage-gated channel subfamily KQT member 2 (Rattus norvegicus), O88943 | actives 0.54% (n = 310,000) | CHO-K1 KCNQ2, FluxOR thallium flux fluorescence; hits give high values;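 active means fluorescence ratio B-score at least 3 SD of library B-scores, with initial fluorescence B-score within 3 SD, cut at about 5.3 in these data; same plate scores as AID 2156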;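 further: B-score of peak minus minimum over baseline fluorescence ratio after K+ and Tl+ stimulus; positive B-score means potentiation of KCNQ2 with more thallium influx and brighter signal; only the inactives scoring about 0 or higher are listed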
Target sequence (O88943 whole entry, looked up): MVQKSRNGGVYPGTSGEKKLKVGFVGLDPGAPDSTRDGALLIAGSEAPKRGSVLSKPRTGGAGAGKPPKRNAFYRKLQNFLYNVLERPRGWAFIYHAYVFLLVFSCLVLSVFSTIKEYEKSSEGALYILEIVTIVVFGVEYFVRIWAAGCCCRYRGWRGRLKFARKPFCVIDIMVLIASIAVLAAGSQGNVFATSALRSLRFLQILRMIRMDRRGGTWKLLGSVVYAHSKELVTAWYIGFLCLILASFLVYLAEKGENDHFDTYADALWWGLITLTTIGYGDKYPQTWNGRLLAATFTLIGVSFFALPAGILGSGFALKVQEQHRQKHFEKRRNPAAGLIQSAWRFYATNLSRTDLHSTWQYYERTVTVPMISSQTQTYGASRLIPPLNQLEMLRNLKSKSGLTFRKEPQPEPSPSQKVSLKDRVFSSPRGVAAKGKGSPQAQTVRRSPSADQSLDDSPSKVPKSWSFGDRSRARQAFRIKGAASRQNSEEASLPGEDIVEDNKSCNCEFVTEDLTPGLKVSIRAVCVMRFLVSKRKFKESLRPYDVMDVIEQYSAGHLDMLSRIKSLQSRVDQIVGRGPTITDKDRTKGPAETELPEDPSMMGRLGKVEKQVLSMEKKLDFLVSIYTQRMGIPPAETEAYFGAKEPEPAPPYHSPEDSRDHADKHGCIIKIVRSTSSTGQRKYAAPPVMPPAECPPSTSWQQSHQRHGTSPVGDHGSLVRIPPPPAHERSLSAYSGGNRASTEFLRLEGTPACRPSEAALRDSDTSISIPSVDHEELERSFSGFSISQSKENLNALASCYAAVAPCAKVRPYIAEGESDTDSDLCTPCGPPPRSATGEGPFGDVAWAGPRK
KCNQ2 pot baseline: also measured in KCNQ2 pot; calls as there; B-score; compound at 10 µM; measured here: initial fluorescence intensity artifact check;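 brightness before thallium and not channel activity; 0 = typical well and far values either way flag optical interference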
* marks the source's active call; other numbers are inactive results. A portion of the library; the hit share may differ from the screen's.

1. O=C1OCCN1CC(=O)N1CCc2c([nH]c3ccccc23)C1c1ccccn1 (stereo not given)
2. Cc1ccc([N+](=O)[O-])cc1S(=O)(=O)Nc1ccc(C(=O)N(C)C)cc1
3. O=C(Nc1ccc2[nH]ccc2c1)c1cccs1
4. Cc1nc(C(=O)NNC(=O)c2ccc(C(F)(F)F)cc2)cs1
5. COC(=O)c1cccc(NC(=O)c2ccc3c(c2)C(=O)N(CC2CCCO2)C3=O)c1 (stereo not given)
6. COc1cccc(OC)c1C(=O)Nc1ccc(Br)c(C(=O)c2ccccc2)c1
7. Cc1cc(NC2CCCCC2)nc(N2CCOCC2)n1
8. COc1cc(OC)c(NS(=O)(=O)c2cc(C(=O)OC(C)C(=O)NC3CC3)c(Cl)cc2Cl)cc1Cl (stereo not given)
Assay by compound | 1 | 2 | 3 | 4 | 5 | 6 | 7 | 8
KCNQ2 pot | 0.41 | 0.36 | 0.88 | 0.97 | 0.01 | 0.4 | 1.7 | 0.18
KCNQ2 pot baseline | 0.27 | 0.05 | -0.28 | 0.09 | -0.33 | 0.07 | -0.02 | 0.2

9. Cc1nc(C)c(C(=O)OCC(=O)N2CCN(c3ccccc3)CC2)s1
10. CCOC(=O)N1CCN(C(=O)c2ccccc2NC(=O)COc2ccccc2)CC1
11. O=C(Nc1ccccn1)c1ccc(C(=O)Nc2ccccn2)cc1
12. COc1ccc(NC(=O)CSc2nnnn2-c2ccc(OC)cc2)cc1
13. COC(=O)CC1(C(=O)OC)Oc2ccccc2C(=O)N1c1ccc(F)cc1F (stereo not given)
14. Cc1ccn2cc(CNS(=O)(=O)c3cccs3)nc2c1
15. COc1ccc(/C=C(/NC(=O)c2ccco2)C(=O)Nc2cccc(C(=O)O)c2)cc1
16. CCn1c(SCC(=O)N2CCc3ccccc32)nc2c(c1=O)SC(C)C2 (stereo not given)
Assay by compound | 9 | 10 | 11 | 12 | 13 | 14 | 15 | 16
KCNQ2 pot | 0.12 | 1.2 | 0.46 | 0.67 | 0.5 | 2.5 | 0.57 | 0.03
KCNQ2 pot baseline | -0.19 | -0.23 | -0.47 | -2.6 | 2.7 | 0.26 | -1.4 | 0.63

Entries of single compounds from above. Screens in order: KCNQ2 pot	KCNQ2 pot baseline
Shown for Cc1nc(C)c(C(=O)OCC(=O)N2CCN(c3ccccc3)CC2)s1 : 0.12	-0.19
Shown for Cc1cc(NC2CCCCC2)nc(N2CCOCC2)n1 : 1.7	-0.02
Shown for Cc1ccc([N+](=O)[O-])cc1S(=O)(=O)Nc1ccc(C(=O)N(C)C)cc1 : 0.36	0.05
Shown for O=C1OCCN1CC(=O)N1CCc2c([nH]c3ccccc23)C1c1ccccn1 (stereo not given) : 0.41	0.27

Back to the main list with the 2 entries that preceded the break.
15. COc1ccc(/C=C(/NC(=O)c2ccco2)C(=O)Nc2cccc(C(=O)O)c2)cc1
16. CCn1c(SCC(=O)N2CCc3ccccc32)nc2c(c1=O)SC(C)C2 (stereo not given)
17. O=c1nc(Nc2ccccc2)oc2ccccc12
18. CC(NCc1cccnc1)c1ccccc1 (stereo not given)
19. Cc1cc(C)nc(N2CCN(c3nc(C)cc(C)n3)CC2)n1
20. CC1CCC(C(C)C)C(OC(=O)CSc2nc(N)cc(=O)[nH]2)C1 (stereo not given)
21. CCN1C(=O)c2cccc3c(S(=O)(=O)Nc4c(C)n(C)n(-c5ccccc5)c4=O)ccc1c23
22. Cc1ccccc1OCC(=O)NNC=O
23. C=CCNC(=S)NCCCCC1NC(=S)N(CC=C)C1=O (stereo not given)
24. COc1cccc(C(=O)NNC(=O)Cc2cccs2)c1
Assay by compound | 15 | 16 | 17 | 18 | 19 | 20 | 21 | 22 | 23 | 24
KCNQ2 pot | 0.57 | 0.03 | 0.57 | 0.77 | 0.04 | 0.83 | 0.67 | 2.1 | 0.12 | 2.4
KCNQ2 pot baseline | -1.4 | 0.63 | 0.49 | 1.2 | -0.08 | 2 | 0.51 | -1.6 | -0.28 | 0

25. O=C1C(=O)N(c2nccs2)C(c2ccccc2)/C1=C(\O)c1ccc2c(c1)OCCO2 (stereo not given)
26. CCCCCNC(=O)C1CC=CCC1C(=O)O (stereo not given)
27. COC(=O)/C(C#N)=C/c1c[nH]c2ccccc12
28. CC(C)CCn1c2ccccc2c2cc(CC(N)=O)ccc21
29. O=c1c2[nH]cnc2n(-c2cccc(F)c2)c(=O)n1Cc1ccccc1
30. CCCCNC(=O)c1onc(CSc2ccccc2F)c1C(=O)O
31. Cc1cccc(-c2nc(-c3ccncc3)no2)c1
32. Cc1cccc(C)c1NC(=O)Cc1cccs1
Assay by compound | 25 | 26 | 27 | 28 | 29 | 30 | 31 | 32
KCNQ2 pot | 1.3 | 0.01 | 2.2 | 0.94 | 0.28 | 0.4 | 1.1 | 0.45
KCNQ2 pot baseline | -0.3 | 0.76 | 0.02 | 0.45 | -0.72 | -1.2 | 0.81 | 0.11

33. COc1ccc(CCN(C)C(=O)c2oc3ccccc3c2C)cc1OC
34. O=C(CN1C(=O)C2CC=C(Cl)CC2C1=O)N1CCOCC1 (stereo not given)
35. CCC(=O)Nc1ccc(Cl)c(NC(=O)c2ccc(Br)o2)c1
36. COc1cccc(C(=O)NC2CCNCC2)c1
37. Nc1nn2c(C(F)(F)F)cc(=O)[nH]c2c1N=Nc1cccc(F)c1
38. COC(=O)c1ccc(COc2ccc(C)c(C)c2)o1
39. Cc1ccccc1OCc1nc(-c2ccc(NC(=O)c3cccs3)cc2)no1
40. Cc1cccc(C)c1N1CCN(c2n[nH]c(N)n2)CC1
Assay by compound | 33 | 34 | 35 | 36 | 37 | 38 | 39 | 40
KCNQ2 pot | 0.42 | 1.9 | 0.93 | 0.27 | 0.08 | 1.8 | 1.2 | 0.66
KCNQ2 pot baseline | 0.68 | -1.2 | 0.03 | -0.82 | 0.09 | 1 | -0.58 | -1.6

41. Cn1c2ccccc2n2c(=O)c(Cl)c(-c3ccccc3)c(C#N)c12
42. COc1ccc(CC(=O)N/N=C(\C)CC(=O)Nc2ccc(N(C)C)cc2)cc1OC
43. COc1cc(NC(=O)C2C3C=CC(C3)C2C(=O)O)c(OC)cc1Cl (stereo not given)
44. COc1ccc(C(=O)Nc2ccc3c(c2)Cc2ccccc2-3)cc1
45. Cc1ccc(S(=O)(=O)N2CC=C(C(=O)NC3CCCC3)CC2)cc1
46. Cc1nc2ccc(S(=O)(=O)N(C)CC(=O)NCc3ccc(N(C)C)cc3)cc2s1
47. CC(c1n[nH]c(=S)n1-c1ccccc1)N1CCCCC1 (stereo not given)
48. CCCOc1ccc(OCCCCNC(C)CC)cc1 (stereo not given)
Assay by compound | 41 | 42 | 43 | 44 | 45 | 46 | 47 | 48
KCNQ2 pot | 0.01 | 0.36 | 0.11 | 0.02 | 1.8 | 1 | 0.25 | 0.58
KCNQ2 pot baseline | 0.63 | -0.85 | 0.2 | 1.1 | -0.66 | 0.08 | -1.9 | 0.21

49. O=C(CN1CCN(Cc2ccccc2)CC1)NCC1COc2ccccc2O1 (stereo not given)
50. COc1cccc(NC(=O)NC2(C(F)(F)F)Oc3ccccc3O2)c1
51. CCOC(=O)c1cnc2c(Cl)cc(Cl)cc2c1NCCCN1CCOCC1
52. CC1Sc2ccc(S(=O)(=O)CCC(=O)N3CCc4ccccc43)cc2NC1=O (stereo not given)
53. COc1ccc(C2CC(c3ccccc3OC(C)=O)=NN2C(C)=O)cc1 (stereo not given)
54. COc1cccc(-n2nc(C(C)=O)c(=O)[nH]c2=O)c1
55. CSc1nnc(CCNC(=O)OC(C)(C)C)o1
56. COc1ccc(CCNC(=O)C2CCCN(S(=O)(=O)N3CCCCCC3)C2)cc1OC (stereo not given)
Assay by compound | 49 | 50 | 51 | 52 | 53 | 54 | 55 | 56
KCNQ2 pot | 1.1 | 3.9 | 0.81 | 0.7 | 0.58 | 0.69 | 0.41 | 0.41
KCNQ2 pot baseline | -0.74 | 0.16 | -1.3 | 1.3 | 0.25 | 1.4 | 0.33 | 0.19

57. Cc1[nH]c2ccccc2c1CCNC(=O)c1ccc2nccnc2c1
58. Cc1nnc2sc(-c3cccc(NC(=O)c4cccnc4)c3)nn12
59. CCOc1ccc2nc(SCC(=O)NCc3ccc(OC)c(OC)c3)[nH]c2c1
60. CSC1=C(C#N)C(C)C2=C(CC(C)(C)CC2=O)N1 (stereo not given)
61. CSc1ccccc1NC(=O)C1CC(c2ccccc2Cl)=NO1 (stereo not given)
62. COc1ccc(OCc2cc(C(=O)NCC3(C)COC3)no2)c(Cl)c1
63. Cc1ccc(C2CC(C(F)F)n3ncc(C(=O)Nc4c(C)nn(Cc5c(F)cccc5Cl)c4C)c3N2)cc1 (stereo not given)
64. Cc1ccc(NC(=O)COc2ccc(/C=N/NC(=O)CSCc3ccccc3)cc2)cc1
Assay by compound | 57 | 58 | 59 | 60 | 61 | 62 | 63 | 64
KCNQ2 pot | 0.18 | 0.4 | 0.35 | 1.3 | 0.33 | 1.1 | 1.3 | 0.01
KCNQ2 pot baseline | 0.32 | 0.36 | 0.76 | -0.32 | -0.13 | -1.3 | -0.87 | 0.03

65. O=C(NC1CC1)C1CCN(C2CCN(C(=O)Cc3ccc4c(c3)OCO4)CC2)CC1
66. Cc1ccccc1CSCc1ccc(C(=O)NCCCN2CCOCC2)o1
67. Cc1cc(NC(=O)c2noc3c2CCc2ccccc2-3)n(-c2ccccc2)n1
68. C=C1CCC[C@]2(C)C[C@H]3OC(=O)C(CNC(CC)CO)[C@H]3CC12 (stereo not given in full)
69. COc1ccc(S(=O)(=O)N(C)C)cc1NC(=O)COC(=O)CC1CCCC1
70. Cc1ccc(C(=O)NCc2nnc(SCC(=O)Nc3sc4c(c3C#N)CCCC4)n2C)cc1
71. CN(CC1CCOCC1)C(=O)CC1C(=O)NCCN1C/C=C/c1ccccc1 (stereo not given)
72. Cc1ccc(OCC(=O)NCCO)cc1C
Assay by compound | 65 | 66 | 67 | 68 | 69 | 70 | 71 | 72
KCNQ2 pot | 0.64 | 0.4 | 1.3 | 0.79 | 1.9 | 0.18 | 0.4 | 1.3
KCNQ2 pot baseline | -0.14 | 1.8 | -0.02 | -0.79 | -0.43 | -2.2 | 0.37 | -0.32

73. Cc1ccc(S(=O)(=O)Oc2ccccc2N2C(=O)C3C4CCC(C4)C3C2=O)cc1 (stereo not given)
74. C=CCN1C(=O)C2(OCCCO2)c2cccc(C)c21
75. Cc1ccc(Cl)cc1N(CC(=O)NCc1ccccc1)S(C)(=O)=O
76. COc1ccc(S(=O)(=O)N2CCC(C(=O)N3CCc4ccccc4C3)CC2)cc1OC
77. CCCCN=C1NC(=O)C(CC(=O)Nc2ccc(Cl)cc2)S1 (stereo not given)
78. C/C(=N\NC(=O)c1ccccc1F)c1ccc2c(c1)Nc1ccccc1S2
79. O=C(NCc1ccccc1)C(=O)NCC(c1ccco1)N1CCOCC1 (stereo not given)
80. CCCCCCCCOC(=O)/C=C/c1c(C)[nH]c(=O)[nH]c1=O
Assay by compound | 73 | 74 | 75 | 76 | 77 | 78 | 79 | 80
KCNQ2 pot | 0.04 | 0.17 | 1.3 | 0.71 | 0.18 | 0.56 | 0.7 | 1.8
KCNQ2 pot baseline | -0.15 | -1.2 | -0.62 | -0.83 | 2.9 | -0.11 | -2.3 | -1.2

81. CCc1ccc(OCC(=O)NNC(=O)c2cc3ccccc3o2)cc1
82. CC(C)OC(=O)CSc1nc(Cc2ccccc2)nc2ccccc12
83. O=C(O)c1cc(-c2cccs2)nn1-c1cccc(Cl)c1
84. CCc1nn2c(=O)cc(N3CCN(c4cc(C)nc5ccccc45)CC3)nc2s1
85. CC(=O)c1cnn(-c2nc3c(C)cccc3s2)c1C
86. CC(=O)Nc1ccc(NC(=O)Cn2cnc(S(=O)(=O)N3CCOCC3)c2)cc1
87. COc1cc(NS(=O)(=O)c2ccc(NC(=O)/C(=C/c3ccccc3Cl)NC(=O)c3ccccc3)cc2)nc(OC)n1
88. O=C(O)/C=C\C(=O)Nc1ccccc1C(=O)N1CCN(c2ccc(Cl)cc2)CC1
Assay by compound | 81 | 82 | 83 | 84 | 85 | 86 | 87 | 88
KCNQ2 pot | 0.68 | 1.1 | 8.9* | 0.22 | 0.05 | 0.77 | 1.1 | 0.16
KCNQ2 pot baseline | 0.01 | 1.8 | -0.37* | -0.38 | -0.05 | 0.18 | 0.01 | 2.7

89. CC(C)Cc1cc(-c2ccco2)c(C#N)c(N)n1
90. C#CCOCCOCCOCCNc1nc(N2CCN(C(=O)[C@H](CCC(=O)O)n3cc(C(N)CO)nn3)CC2)nc(N2CCN(C(=O)[C@H](Cc3cc4ccccc4[nH]3)n3cc(C(N)[C@H](C)CC)nn3)CC2)n1 (stereo not given in full)
91. CCCCC(=O)Nc1cccc(NC(=S)NC(C)=O)c1
92. O=C(Nc1cccc(Cl)c1Cl)C1CCN(c2ncccn2)CC1
93. Cc1[nH]n(-c2ccc(Cl)cc2)c(=O)c1N=Nc1cccnc1
94. CC(OC(=O)C1=COCCO1)C(=O)Nc1ccc(Cl)cn1 (stereo not given)
95. Cc1ccc(C(C)C)c(OCCN)c1
96. CC(C)NC(=O)/C(=C\c1cccc([N+](=O)[O-])c1)NC(=O)c1ccccc1
97. COc1cc(NC(=O)CCN2CCN(C)CC2)cc(OC)c1
98. CC12CCC(=O)N1C(C(=O)Nc1ccc(F)c(Cl)c1)CS2 (stereo not given)
Assay by compound | 89 | 90 | 91 | 92 | 93 | 94 | 95 | 96 | 97 | 98
KCNQ2 pot | 0.04 | 0.23 | 0.06 | 0.24 | 0.92 | 0.68 | 0.89 | 0.2 | 0.73 | 1.1
KCNQ2 pot baseline | -0.04 | -1.6 | -1.9 | 0.47 | 2 | 0.47 | -0.21 | 1.2 | 0.99 | -1.8

An excerpt of these results, in markdown.
| # | SMILES | KCNQ2 pot | KCNQ2 pot baseline |
| --- | --- | --- | --- |
| 95 | Cc1ccc(C(C)C)c(OCCN)c1 | 0.89 | -0.21 |
| 89 | CC(C)Cc1cc(-c2ccco2)c(C#N)c(N)n1 | 0.04 | -0.04 |
| 98 | CC12CCC(=O)N1C(C(=O)Nc1ccc(F)c(Cl)c1)CS2 (stereo not given) | 1.1 | -1.8 |
